eIF4H inh: inhibitors of RNA binding by human eIF4H. Q15056. eIF4H fluorescence polarization binding assay. 0.94% of 290,000 active. inhibition, % at 35 µM;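 active means 50% or more with normal probe brightness, or confirmed in later tests; inconclusive means above 50% with abnormal brightness, or retests that disagree; inactive means below 50% or failed in later tests; about a fifth of its hits are not listed in these tables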;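 further: calls also rest on retests at 20 µM and on dose response follow-up; 0% = protein and probe with vehicle and 100% = probe without protein; strong numbers were not always called active; many hits fall short of the cut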
HIV Env fusion: blocks HIV Env-driven cell-cell fusion. AID 651610. inhibition, % at 12.3 µM. 1.1% of 360,000 active. HeLa-JRFL Env/CEM21 cell fusion, luciferase;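 active means mean replicate inhibition score of at least 50 and every replicate individually at or above 50; inconclusive means only one of the two criteria met; inactive means mean below 50 and not all replicates reaching 50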;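 further: 0% = plate neutral controls and 100% = maraviroc near 300 nM; one replicate is shown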
PABP polyA inh: PABP-poly(A) binding inhibition. P11940. PABP-poly(A) RNA binding, fluorescence polarization. inhibition, % at 35 µM. 1% of 290,000 active. AID 2014;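 active means 50% or more with normal probe brightness, or confirmed in later tests; inconclusive means above 50% with abnormal brightness, or retests that disagree; inactive means below 50% or failed in later tests; about a fifth of its hits are not listed in these tables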;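 further: calls also rest on retests at 20 µM and on dose response follow-up; controls were probe without protein and protein plus probe with vehicle; some compounds called inactive have numbers as strong as hits; many hits fall short of the cut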
CSC inhib: blocks cancer stem cells; cancer stem cell-like cells viability, luminescence; inhibition, % at 7.5 µM; 1.1% of 300,000 active; AID 2717;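 active means mean at 75% or more and at least half the replicates too; inconclusive means mean and replicates disagree; tested in HMLE shEcad cells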;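 further: 0% = median of negative and 100% = median of positive control wells; the first replicate is given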
MT1-MMP act inh: inhibitors of human MT1-MMP activation | P50281 | HT1080 RFP-PRO-GFP cells, GFP/RFP ratio fluorescence, overnight; percent of plate control window, DMSO zero | GFP/RFP ratio change, % at 20 µM | 0.061% of 360,000 active | AID 651647;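 active means GFP/RFP ratio change of at least 30% with cell ATP level not reduced by more than half and red fluorescence within 50% of control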; further: strong numbers were not always called active
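Read-out: GFP/RFP fluorescence ratio; Test system: RFP-PRO-GFP reporter HT1080 cells; Compound dosing: single-point 20 µM compound, 1% DMSO; Times: overnight compound exposure at 37 °C.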
Rce1 inhib: blocks yeast Ras-converting enzyme | Q03530 | yeast membranes, quenched prenylated peptide cleavage fluorescence | calls only | 0.27% of 290,000 active | AID 2563;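 active means fall in fluorescence gain of 50% or more versus controls, with final raw signal at or below 3038400; inconclusive means same 50% fall but final raw signal above 3038400; inactive means fall in fluorescence gain under 50%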;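 further: plate controls were neutral control wells for no effect and wells lacking membranes for full effect; tested at 10 µM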
Target sequence (Q03530 whole entry, looked up): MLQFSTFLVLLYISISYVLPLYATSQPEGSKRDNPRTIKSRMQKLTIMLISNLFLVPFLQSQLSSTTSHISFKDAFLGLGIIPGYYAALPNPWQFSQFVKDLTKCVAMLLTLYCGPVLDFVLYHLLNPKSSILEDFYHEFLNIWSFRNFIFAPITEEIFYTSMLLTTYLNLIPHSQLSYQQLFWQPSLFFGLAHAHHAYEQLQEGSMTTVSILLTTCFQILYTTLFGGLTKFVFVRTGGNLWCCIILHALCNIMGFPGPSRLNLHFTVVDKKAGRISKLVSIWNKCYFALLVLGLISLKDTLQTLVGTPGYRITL
UUG fidelity: modulators of start codon recognition fidelity in yeast. S. cerevisiae UUG-firefly luciferase reporter, luminescence/redox ratio. activity score, % at 18.7 µM. 0.13% of 350,000 active. AID 602363;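 active means replicate mean at a twofold rise or more, about +100% in these data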;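 further: firefly luciferase made from a UUG start codon reports start codon fidelity; reporter light over untreated wells divided by growth signal over untreated wells; some hits fall short of that in this replicate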
MT1-MMP act inh RFP: also measured in MT1-MMP act inh; calls as there; RFP signal change, %; measured here: RFP expression control read;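 0 = vehicle wells; hits needed this value within 50% of zero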
* marks the source's active call; other numbers are inactive results; i = inactive; ? = inconclusive; · = not tested or not shown.

nr	compound	UUG fidelity	MT1-MMP act inh	HIV Env fusion	Rce1 inhib	MT1-MMP act inh RFP	PABP polyA inh	CSC inhib	eIF4H inh
1	NC(=O)CC[C@H](NC(=O)c1ccc(F)cc1)C(=O)OCC(=O)NCc1ccc(F)cc1	·	1	10	i	5	-12	-20	-9
2	CCOC(=O)N1CCN(Cc2nc3cc([N+](=O)[O-])ccc3n2CC)CC1	-2	4	-3	i	-1	-10	-8	4
3	Cc1ccccc1OCC(=O)Nc1ccccc1N1CCCCC1	-2	-5	?	i	-3	-8	63	-2
4	CCC(=O)Nn1c(C2CCC2)nc2ccccc2c1=O	-8	0	-6	i	-1	-3	-11	-15
5	O=C(CSc1n[nH]c(-c2ccccc2Cl)n1)NC1CCCCC1	-9	0	-1	·	-1	-5	-12	-6
6	CCCn1cnc2c(SCc3ccccn3)nc(N)nc21	-21	-3	-7	·	-4	·	·	·
7	COCCCNC(=O)CS(=O)Cc1nc(-c2cccc(OC)c2)oc1C (centres undefined)	·	0	-182	i	5	-5	-4	-2
8	Cc1cccc(C)c1NS(=O)(=O)c1c(C)[nH]c(=O)[nH]c1=O	8	-1	0	i	11	-9	-26	-4
9	Cc1c(Cl)cccc1NC(=S)N(CCN(C)C)C(C)c1ccccn1 (centres undefined)	-1	6	17	i	7	1	2	-1
10	O=C(NC1CC1)C1CCN(C(=O)c2ccc(Cl)cc2Cl)CC1	-20	0	-11	i	2	2	3	-4
11	COc1ccc(C(=O)n2cc(C(=O)c3cc(C)ccc3O)cn2)cc1OC	·	-19	15	i	-10	15	15	8
12	CCc1c(C(=O)Nc2ccc(OC)c(Cl)c2)[nH]c(C)c1C(C)=O	-14	8	0	i	3	6	9	6

Arranged by length of the SMILES (lowest first): some entries from above.
nr	compound	UUG fidelity	MT1-MMP act inh	HIV Env fusion	Rce1 inhib	MT1-MMP act inh RFP	PABP polyA inh	CSC inhib	eIF4H inh
6	CCCn1cnc2c(SCc3ccccn3)nc(N)nc21	-21	-3	-7	·	-4	·	·	·
4	CCC(=O)Nn1c(C2CCC2)nc2ccccc2c1=O	-8	0	-6	i	-1	-3	-11	-15
3	Cc1ccccc1OCC(=O)Nc1ccccc1N1CCCCC1	-2	-5	?	i	-3	-8	63	-2
5	O=C(CSc1n[nH]c(-c2ccccc2Cl)n1)NC1CCCCC1	-9	0	-1	·	-1	-5	-12	-6
10	O=C(NC1CC1)C1CCN(C(=O)c2ccc(Cl)cc2Cl)CC1	-20	0	-11	i	2	2	3	-4
7	COCCCNC(=O)CS(=O)Cc1nc(-c2cccc(OC)c2)oc1C (centres undefined)	·	0	-182	i	5	-5	-4	-2
8	Cc1cccc(C)c1NS(=O)(=O)c1c(C)[nH]c(=O)[nH]c1=O	8	-1	0	i	11	-9	-26	-4
2	CCOC(=O)N1CCN(Cc2nc3cc([N+](=O)[O-])ccc3n2CC)CC1	-2	4	-3	i	-1	-10	-8	4
1	NC(=O)CC[C@H](NC(=O)c1ccc(F)cc1)C(=O)OCC(=O)NCc1ccc(F)cc1	·	1	10	i	5	-12	-20	-9

Full records from above. Order of screens: UUG fidelity, MT1-MMP act inh, HIV Env fusion, Rce1 inhib, MT1-MMP act inh RFP, PABP polyA inh, CSC inhib, eIF4H inh
CCOC(=O)N1CCN(Cc2nc3cc([N+](=O)[O-])ccc3n2CC)CC1 is entered as -2, 4, -3, i, -1, -10, -8, 4
Cc1ccccc1OCC(=O)Nc1ccccc1N1CCCCC1 is entered as -2, -5, ?, i, -3, -8, 63, -2

Further structures
nr	compound	UUG fidelity	MT1-MMP act inh	HIV Env fusion	Rce1 inhib	MT1-MMP act inh RFP	PABP polyA inh	CSC inhib	eIF4H inh
13	COc1cc(CCc2ccc3c(c2)OCO3)oc(=O)c1	-18	-2	·	i	-1	-3	-11	0
14	O=C(CCCC(=O)N1CCN(c2ccccc2F)CC1)N1CCN(c2ccccc2F)CC1	·	3	·	i	3	-4	-12	-2
15	Cc1cc(C)n(C(=O)c2cc(F)c(F)cc2C)n1	·	-2	16	·	7	5	-6	2
16	CC1CCC(NC(=O)c2cccn2C)CC1 (centres undefined)	-14	0	-64	·	0	·	·	·
17	Cc1nn(-c2ccccc2)c(Cl)c1C(=O)NCC(C)c1ccccc1 (centres undefined)	10	-2	10	i	-5	3	43	3
18	CCOC(=O)c1nn(-c2ccccc2)c(-c2ccccc2)c1C(=O)c1ccccc1	-15	-9	·	i	-8	-9	6	12
19	COc1ccccc1N1CCN(S(=O)(=O)CCNC(=O)COc2ccccc2)CC1	6	-2	-66	·	3	·	·	·
20	Cc1ccc(NC(=O)/C=C2\NC(=O)CS2)cc1	-14	2	-13	i	2	2	13	10
21	COc1cc(/C=C2\SC(=O)N(CCNC(=O)c3cnc(C)cn3)C2=O)cc(OC)c1OC	·	5	·	i	3	3	3	36
22	COc1ccc(N(C(=O)Cc2cccs2)C(C(=O)NC2CCCC2)c2ccncc2)cc1 (centres undefined)	-5	1	10	i	2	-4	-14	-1
23	O=C(Cc1noc2ccccc12)NNC(=S)Nc1ccccc1	-35	-1	-10	i	2	-5	17	0
24	O=C(NCC1CCCO1)c1ccccc1-c1nc(-c2ccccc2F)no1 (centres undefined)	-6	-5	-7	i	1	18	-9	-4

(continued)
nr	compound	UUG fidelity	MT1-MMP act inh	HIV Env fusion	Rce1 inhib	MT1-MMP act inh RFP	PABP polyA inh	CSC inhib	eIF4H inh
25	COc1ccc(C2NC(=O)NC3=C2CCc2ccccc23)cc1 (centres undefined)	-15	-2	·	i	-2	0	20	-4
26	CC(=O)CSc1nc(CCc2ccccc2)c(C#N)c(=O)[nH]1	0	2	-3	·	0	·	·	·
27	Cc1ccsc1/C=N/NC(=O)c1ccc2ccccc2c1	-28	-1	-32	i	-2	-5	36	-8
28	CCN(CC)S(=O)(=O)c1ccc2c(c1)nc(SCC(=O)NCC1CCCO1)n2CC (centres undefined)	-8	-5	·	i	2	·	·	·
29	CN(C)c1ccc(CNc2nc(-c3ccccc3)nn2S(C)(=O)=O)cc1	-18	6	10	i	3	-7	-11	0
30	Cc1ccc2nc(SCC(=O)NC3CC3)[nH]c2c1	-28	0	5	i	0	-2	-19	-1
31	COCCC(=O)N1CCC(Oc2ccc(C(=O)N3CCCCCC3)cc2)CC1	0	2	-5	i	-1	5	6	-20
32	CCCCn1c(=O)n(CC(=O)Nc2ccc(OC)c(Cl)c2)c(=O)c2c1nc(CO)n2CCC	4	6	·	i	0	-18	-9	-5
33	CCOC(=O)N1CCN(C2=CC(=O)OC23CCCCC3)CC1	-16	-4	-54	i	-2	4	-4	-4
34	CC(=O)Nc1ccc(S(=O)(=O)NCCc2cc3c(C)ccc(C)c3[nH]c2=O)cc1	-6	1	18	i	4	-4	3	7
35	Clc1ccc(C(c2nnnn2CCc2ccccc2)N2CCSCC2)cc1 (centres undefined)	-20	-7	100*	i	-7	-4	17	0
36	CC(=O)N(C(C)=O)c1ncn(C)c1S(=O)(=O)Nc1ccccc1	-12	-5	0	·	2	·	·	·

New compounds follow.
nr	compound	UUG fidelity	MT1-MMP act inh	HIV Env fusion	Rce1 inhib	MT1-MMP act inh RFP	PABP polyA inh	CSC inhib	eIF4H inh
37	CNS(=O)(=O)c1cccc(C(=O)NCC2CCCCC2)c1	-8	3	4	i	3	1	-7	-6
38	CCOc1cc(/C=C2/NC(=O)N(CC(=O)OC)C2=O)ccc1O	-2	-2	-13	i	-9	-4	9	3
39	Oc1ccc(N=Nc2cccc(C(F)(F)F)c2)cc1C=Nc1ccc(N2CCOCC2)cc1	·	45*	-18	i	-8.8*	6	72	-9
40	Cc1ccsc1/C=N/NC(=S)NCCc1ccccc1	-34	4	-5	i	4	-13	30	6
41	CC1CCN(C(=O)CN(c2ccc3c(c2)OCO3)S(C)(=O)=O)CC1	-17	0	·	i	5	2	-11	4
42	O=C(Nc1nc2ccccc2s1)c1ccc2c(c1)OCO2	·	3	-250	i	-5	3	39	-11
43	COc1ccc2c(c1)CCc1cnc(N)nc1-2	-18	-3	5	?	-3	-1	-1	0
44	O=C(Nc1ccc(S(=O)(=O)Nc2ncccn2)cc1)c1ccc(Cl)c([N+](=O)[O-])c1	-10	3	8	i	-3	-4	·	-4
45	CCC1(c2ccc(OC)cc2)NC(=O)N(CC(=O)NC2CCCCC2C)C1=O (centres undefined)	3	-2	3	·	-3	·	·	·
46	CCOC(=O)c1sc(=S)n(-c2ccc(Cl)cc2)c1SC	-27	-5	-19	i	5	-2	9	-11
47	O=C1C2C(C(=O)N1/N=C/c1cc(Br)cc([N+](=O)[O-])c1O)C1C=CC2C12CC2 (centres undefined)	·	2	·	i	-3	9	-21	-1
48	COc1cc2c(-c3ccccc3)c(C)oc2cc1/C=N/NC(N)=S	1	8	-10	i	0	·	13	·

Carrying on:
nr	compound	UUG fidelity	MT1-MMP act inh	HIV Env fusion	Rce1 inhib	MT1-MMP act inh RFP	PABP polyA inh	CSC inhib	eIF4H inh
49	COc1cc2c(cc1OC)C(c1ccccc1)N(C(=O)CCl)CC2 (centres undefined)	14	0	2	i	2	6	-9	-8
50	Cc1ccc(-c2cc(C(=O)OCC(=O)N(C)C3CCS(=O)(=O)C3)c3ccccc3n2)c(C)c1 (centres undefined)	·	-5	6	i	-3	3	-11	-2
51	Cc1ccc(NC2=NCC(=O)N2C2CCCC2)c(C)c1	-11	0	·	i	1	6	-14	0
52	COc1ccccc1OCC(=O)N1CCCCCCC1	9	0	-9	i	-3	10	8	4
53	COc1ccccc1C(=O)N=C1NC(=O)CC2C(=O)NCCN12 (centres undefined)	-17	-2	-29	i	5	-4	0	-4
54	COc1cccc(N2CCN(S(=O)(=O)c3ccc(CN4C(=O)c5cccnc5C4=O)cc3)CC2)c1	-18	1	6	i	3	-10	-10	-10
55	CCN(c1ccccc1)S(=O)(=O)c1ccc2ccccc2c1	-12	-5	23	i	-4	4	0	-6
56	COc1cc(C(=O)NC(=S)Nc2nccs2)cc(OC)c1OC	·	14	7	i	-6	-1	-5	-1
57	Cc1cccc(C(C)C)c1NC(=O)CN1C(=O)NC2(CCc3ccccc32)C1=O (centres undefined)	-14	-6	-18	i	0	·	9	·
58	NC(=O)c1ccccc1NC(=O)/C=C/c1ccc(Cl)cc1	2	-2	-356	i	-9	-8	·	0
59	CCc1nc2c(OCc3ccccc3C)cccn2c1N(C)C(=O)C1CC1	-12	-9	-6	·	-4	·	·	·
60	Cc1cc2ncn(C(=O)N3CCCCC3)c2cc1C	-13	2	·	i	2	3	-8	4
61	Cn1cc(CN2CCN(Cc3ccccc3)C(CCO)C2)c(-c2ccccc2)n1 (centres undefined)	-21	2	-25	i	2	18	-7	-2
62	COc1cc2c(C#CCCO)c(-c3ccc(C#N)cc3)oc(=O)c2cc1OC	-19	2	1	·	0	·	4	·
63	NC(=O)CNC(=O)[C@@H]1CC2(CC(c3cccc([N+](=O)[O-])c3)=NO2)CN1C(=O)c1ccccc1 (some centres undefined)	-2	-1	-10	i	6	47	10	-6

Bioassay records: PubChem BioAssay, several laboratories
